# CBX7 AlphaScr – CBX7 inhibition, primary AlphaScreen; O95931; AlphaScreen His6-CBX7 / biotin-H3K27me3 peptide binding; active compounds read low; normalised signal (fraction of DMSO) (concentration not given with the values); actives 1.1% (n = 66,000); AID 1224903; in the data active = normalised signal below about 0.5;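 also: 100 nL library stock added to about 20 µL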
# Target sequence (O95931 whole entry, looked up): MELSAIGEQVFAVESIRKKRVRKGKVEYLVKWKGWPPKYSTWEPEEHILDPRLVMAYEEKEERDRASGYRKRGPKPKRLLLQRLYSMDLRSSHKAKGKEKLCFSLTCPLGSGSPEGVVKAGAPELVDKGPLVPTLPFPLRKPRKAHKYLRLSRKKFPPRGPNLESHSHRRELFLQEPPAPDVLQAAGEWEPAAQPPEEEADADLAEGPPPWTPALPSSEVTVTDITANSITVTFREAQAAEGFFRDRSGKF
# CBX7 AlphaScr z-score – recorded beside CBX7 AlphaScr, whose call it bears; z-score; measured here: z-score of CBX7 signal; some inactives read as strong as hits; reference of the scale not given here;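 same signal on another scale; lower means less binding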
# Numbers without * were called inactive. This is a subset; rates above refer to the full screens.
SMILES,CBX7 AlphaScr,CBX7 AlphaScr z-score
Cc1ccccc1Cn1c(SCc2cccc(F)c2)nc2ccncc21,1.1,1.3
CCCN(C(=O)Cc1c(C(=O)O)n(C)c2ccccc12)c1cccc(C)c1,0.99,-0.33
CCN(CCNC(=O)C1CCCN(Cc2nc(-c3cccc(Cl)c3)oc2C)C1)c1ccccc1 (stereo not given),0.86,-3.8
Cc1ccc(C(=O)c2ccc(Br)cc2)cc1S(=O)(=O)Nc1ccc(Cl)cc1,1,1.1
CC(C)c1cc(C(=O)Nc2c(F)cc(F)cc2Br)no1,1.1,0.9
C=CCN(c1ccccc1)S(=O)(=O)c1ccc2c(c1)CCN2C(C)=O,1,-0.11
COc1ccc(Nc2ncc(C(=O)Nc3cnc4ccccc4c3)c3ccccc23)cc1,0.9,-2.1
CCOC(=O)Cc1csc(NC(=O)COc2ccc(Oc3ccc(C)cc3)cc2)n1,1,0.026
CCC(=O)Nc1cccc(-c2nc3ncccc3o2)c1C,0.98,-0.46
CC1C(=O)CC(c2ccccc2)NC1c1ccccc1 (stereo not given),1,0.75

# Brought forward from above: 6 compounds; new compounds follow.
SMILES,CBX7 AlphaScr,CBX7 AlphaScr z-score
CC(C)c1cc(C(=O)Nc2c(F)cc(F)cc2Br)no1,1.1,0.9
C=CCN(c1ccccc1)S(=O)(=O)c1ccc2c(c1)CCN2C(C)=O,1,-0.11
COc1ccc(Nc2ncc(C(=O)Nc3cnc4ccccc4c3)c3ccccc23)cc1,0.9,-2.1
CCOC(=O)Cc1csc(NC(=O)COc2ccc(Oc3ccc(C)cc3)cc2)n1,1,0.026
CCC(=O)Nc1cccc(-c2nc3ncccc3o2)c1C,0.98,-0.46
CC1C(=O)CC(c2ccccc2)NC1c1ccccc1 (stereo not given),1,0.75
Cc1ccccc1OCc1nc(C#N)c(N2CCCCC2)o1,0.71,-13
O=C(Nc1ccccc1-c1nc2ccccc2[nH]1)c1ccc(S(=O)(=O)N2CCCCC2)cc1,1.1,0.82
CC(C)CCNC(=O)COc1ccc2c(c1)C(=O)CC(C)(C)O2,0.84,-1.8
Cc1nc2ccc(S(=O)(=O)N(C)CC(=O)Nc3cccc(Cl)c3)cc2s1,1.3,1.7
CCCCSc1oc(-c2ccc(F)cc2)nc1S(=O)(=O)c1ccc(F)cc1,1.1,0.23
CCC1Oc2ccccc2N(CC(=O)NCc2cc(OC)ccc2OC)C1=O (stereo not given),0.96,-0.85
c1ccc(Oc2ccc(Nc3c4c(nc5ccccc35)CCC4)cc2)cc1,0.63,-11
CCC(C(=O)Nc1c2c(nn1-c1ccc(F)cc1)CSC2)c1ccccc1 (stereo not given),0.97,-0.95
Cc1cccc(-n2c(Cc3cc(=O)[nH]c(=O)[nH]3)nnc2SCC(=O)N2CCCCC2)c1,1,0.035
O=C(CN1C(=O)CCSc2ccccc21)NCCCc1ccccc1,1,1.3

# 3 entries already listed, ordered by molar mass, largest number first:
SMILES,CBX7 AlphaScr,CBX7 AlphaScr z-score
O=C(Nc1ccccc1-c1nc2ccccc2[nH]1)c1ccc(S(=O)(=O)N2CCCCC2)cc1,1.1,0.82
Cc1cccc(-n2c(Cc3cc(=O)[nH]c(=O)[nH]3)nnc2SCC(=O)N2CCCCC2)c1,1,0.035
CCC1Oc2ccccc2N(CC(=O)NCc2cc(OC)ccc2OC)C1=O (stereo not given),0.96,-0.85

# Going on with the list:
SMILES,CBX7 AlphaScr,CBX7 AlphaScr z-score
COc1ccc(NC(=O)CN(c2ccc(C)cc2)S(=O)(=O)c2c(C)nn(C)c2C)cc1OC,1.2,1.1
COc1ccc(NC(=O)c2oc3ccc(S(=O)(=O)N(C)C4CCCCC4)cc3c2C)cc1,1.1,3.2
CC(C)CC(=O)N1CC(=O)Nc2ccc(Cl)cc2C1c1ccccc1 (stereo not given),1,0.073
CCOCCCNC(=O)c1cc(-c2ccncc2)nc2ccccc12,1,0.51
O=C(NCC1CCCO1)c1cc2n(n1)C(C(F)(F)F)CC(c1ccc(Cl)c(Cl)c1)N2 (stereo not given),1.1,0.71
Cc1c(C)n(CC(O)CNCc2ccccc2)c2ccccc12 (stereo not given),0.82,-5
Cc1cc(C(=O)NC(C)c2ccc3c(c2)OCCO3)nn1-c1ccccc1 (stereo not given),1.1,1.9
COc1cccc(NC2c3ccccc3C(=O)N2c2ccccc2C)c1 (stereo not given),1,-0.067
CCOc1ccccc1Nc1nc(-c2ccccc2)cs1,0.97,-0.41
Cc1ccc(N2C(=O)c3ccccc3C2Nc2ccccc2Br)nc1 (stereo not given),0.82,-2.5
O=C(CN1CCN(Cc2ccc3c(c2)OCO3)CC1)N1c2ccccc2CCc2ccccc21,0.58,-0.42
CC1CCCC(NC(=O)c2cc3c(-c4ccc(Cl)cc4)nn(C)c3s2)C1C (stereo not given),1.1,0.59
O=C(Cc1c(C(=O)O)[nH]c2ccc(Cl)cc12)Nc1ccccc1F,1,0.4
CCOc1ccc(OCC)c(NS(=O)(=O)c2ccc3c(c2)CCN3C(=O)C2CCC2)c1,0.96,-1
Cc1cccc(Nc2nc(-c3ccc(Cl)cc3)nc3ccccc23)c1,1.4,4.2
CC(=O)N1CCc2cc(S(=O)(=O)N3CCN(c4ccccc4)CC3)ccc21,0.95,-1.5
Cc1ccc(NC(=O)c2cc(-c3cccc(Cl)c3)on2)cc1,1,0.31
COc1ccc(-n2nc3c(c2NC(=O)COc2ccccc2)CSC3)cc1,1,0.12
CCc1ccc(-c2nc(C(=O)NCC(OC)OC)c(C)o2)cc1,0.99,-0.15
O=C(Nc1cccc(F)c1)C1CCN(S(=O)(=O)c2ccccc2)CC1,0.87,-2.4
CC1CCCCC1NC(=O)C1(S(=O)(=O)c2ccc(Cl)cc2)CC1 (stereo not given),1.1,1.5
Cc1ccc2cc(CCNS(=O)(=O)c3ccc(Cl)cc3)c(=O)[nH]c2c1,0.99,-0.096
CCOC(=O)c1cccc(NC(=O)c2c(Cl)ccc(Cl)c2OC)c1,1.1,0.24
CC1(C)CC(=O)c2cc(C(=O)Nc3ccc(Cl)cc3)c(=O)n(-c3ccccc3)c2C1,1.6,2.6
CC(=O)Nc1ccc(Nc2nc3nonc3nc2Nc2ccc(Br)cc2)cc1,0.94,-2
N#Cc1c2c(c(Nc3ccc(C4CCCCC4)cc3)n3c1nc1ccccc13)CCC2,0.84,-2.4
CCc1ccc(-c2nc(CN3CCCC(C(=O)NCc4ccccc4Cl)C3)c(C)o2)cc1 (stereo not given),0.95,-1.4
COc1cc(Nc2nc(SCC(=O)Nc3cc(C)[nH]n3)nc3ccccc23)cc(OC)c1,1,0.11
Cc1ccc(C)c(NC(=O)Nc2ccc3c(c2)N(C)C(=O)CS3)c1,0.98,-0.51
COc1ccc(-n2nc(C(=O)N3CCC(C(N)=O)CC3)c3ccccc3c2=O)c(OC)c1,1,0.62
CCOc1ccccc1NC(=O)CSc1nnc(Cc2cc(=O)[nH]c(=O)[nH]2)n1-c1cccc(C)c1,1.1,1.9
COc1ccc(Cl)cc1NC(=O)Cn1c(SCc2cccc(C)c2)nc2ccncc21,0.82,-2.5
O=C(NCc1ccccc1Cl)C1=CCN(S(=O)(=O)c2ccccc2)CC1,0.98,-0.8
COc1ccc2c(c1)c(=O)c(S(=O)(=O)c1ccc(Cl)cc1)cn2CC(=O)Nc1ccc(C)cc1,0.77,-3.3
CSc1c(CC(=O)Nc2ccc(C)cc2)n(Cc2ccccc2)c2ccccc12,1.1,1.7
CCCOc1ccc(-c2csc(NC(=O)c3ccc(S(=O)(=O)N4CCCCC4)cc3)n2)cc1,0.97,-1.1
CC(C)(C)c1ccc(C(=O)Nc2c(C(=O)c3ccc(Br)cc3)oc3ccccc23)cc1,1.3,1.5
CC(C)(C)c1ccc(CSc2nc3ccccc3c(=O)n2CC2CCCO2)cc1 (stereo not given),0.72,-2.1
O=C(O)c1ccc2c(c1)NC(=O)C(CS(=O)(=O)Cc1ccc(F)cc1)N2 (stereo not given),0.95,-1
COc1ccc(-c2c(C(F)(F)F)oc3c(CN4CCC(C)CC4)c(O)ccc3c2=O)cc1OC,1.1,2
COc1cccc(-c2cc(C(F)(F)F)nc(N3CCN(C)CC3)n2)c1,0.91,-0.69
Cc1cc(C)n(-c2nc3ccccc3nc2Nc2ccc(C(C)C)cc2)n1,2.8,64
CCOc1ccc(CN(CCc2ccc3c(c2)OCO3)Cc2cccnc2)cc1,0.77,-6.5
C=CCn1c(SCC(=O)Nc2cccc(C(F)(F)F)c2)nnc1-c1cccc(Br)c1,0.95,-0.62
COC(=O)c1ccc(NC(=O)Cn2nc(-c3ccc(C)cc3)c3ccccc3c2=O)cc1,1,0.055
CCC(=O)N1c2ccccc2NC2=C(C(=O)CC(c3ccccc3)C2)C1c1ccc2c(c1)OCO2 (stereo not given),1,0.17
CCc1cccc(C)c1NC(=O)c1cc2sc(Cl)cc2n1C,0.96,-1.8
O=C(CN1C(=O)COc2ccc(S(=O)(=O)N3CCOCC3)cc21)Nc1cccc(F)c1,0.93,-1.1
CSc1ccc(C2Nc3ccccc3NC3=C2C(=O)CC(c2ccc(Cl)cc2)C3)cc1 (stereo not given),0.74,-4.1
CN(C)CCNc1c2c(nc3ccccc13)CCC2,0.87,-1.4

# Later entries:
SMILES,CBX7 AlphaScr,CBX7 AlphaScr z-score
Cc1cccc(NC(=O)COc2nsnc2N2CCOCC2)c1,1.1,0.78
CCCN(CCC)CCCNc1ccc2nnc(-c3ccc(F)cc3)n2n1,0.96,-0.56
CC(=O)Nc1ncc(CN2CCC(C)CC2)s1,1,1
O=C1CCc2cc(S(=O)(=O)NC(C(=O)NCc3ccc(F)cc3)c3ccccc3)ccc2N1 (stereo not given),0.99,-0.5
Cc1ccc(Cn2nnc(-c3ccc(OCc4ccccc4F)cc3)n2)cc1,1.6,5.9
COc1ccc(OC)c(NC(=O)c2c(NCc3ccncc3)sc3c2CCCC3)c1,0.63,-19
CCOc1ccc(CCNC(=O)c2cc(C)nn2-c2ccccc2)cc1,1.1,1.7
Cc1cccnc1NC(c1ccccc1)c1ccc2cccnc2c1O (stereo not given),0.032*,-16*
COc1ccc(CN2CC(C(=O)NCCCN3CCOCC3)CC2=O)cc1 (stereo not given),1.1,0.19
CC1CCCN(S(=O)(=O)c2ccc(C(=O)Nc3ccccc3-c3nc4ccccc4s3)cc2)C1 (stereo not given),1.1,0.14
Cc1ccc2c(c1)C(c1ccc(F)cc1)N(C(=O)c1ccccc1F)CC(=O)N2 (stereo not given),1.1,1.2
COc1ccc(C(c2sc3nc(C)nn3c2O)N2CCN(CCO)CC2)cc1OC (stereo not given),0.96,-1.8
Cc1ccc(NC(=O)C2CCCN(S(=O)(=O)c3cnc[nH]3)C2)cc1C (stereo not given),0.98,-0.95
Cc1cc(C)n2c(Nc3ccccc3C)c(-c3cccs3)nc2n1,1.1,1.2
CC(=O)NC(CCS(C)(=O)=O)C(=O)Nc1ccc(Br)cc1 (stereo not given),0.99,-0.44
Cn1c(SCC(=O)c2ccccc2)nnc1-c1c[nH]c2ccccc12,0.83,-3
COc1ccc2[nH]cc(CCNC(=O)Nc3cccc(F)c3)c2c1,0.96,-1.7
Cc1nc2cc(C(=O)NCc3cccnc3)ccc2n1-c1ccc(Br)cc1,0.98,-0.67
Cc1ccc(C)c(CN2C(=O)CSc3ccc(C(=O)NCCC4=CCCCC4)cc32)c1,1,0.2
Cc1ccc(NC(=O)CCNS(=O)(=O)c2ccc3c(c2)CCC(=O)N3)c(C)c1,1,0.61
Cc1noc(C)c1S(=O)(=O)N1CCC(C(=O)N2CCCCC2)CC1,1,1.5
Cc1nnc(NC(=O)CSc2nnc(Cc3cc(=O)[nH]c(=O)[nH]3)n2-c2ccc(F)cc2)s1,1,0.39
COc1ccc(N(C)C(=O)CCc2nc(-c3ccccc3F)no2)c(OC)c1,1.1,2.8
CCC1=Nc2cc(C(=O)NC(C)c3ccccc3)ccc2Sc2ccc(Cl)cc21 (stereo not given),0.95,-2.1
Fc1cc2nc(-c3ccccc3)c(-c3ccccc3)nc2cc1Cl,1.4,2.6
CN1CCCc2c(n(Cc3ccccc3)c3ccccc23)C1=O,1,1
COc1ccc(C)cc1NC(=O)C(CC(C)C)NS(=O)(=O)c1ccc2nc(C)sc2c1 (stereo not given),0.93,-1.4
CC12c3ccccc3C(c3ccccc31)C1C(=O)N(c3ccccc3Cl)C(=O)C12 (stereo not given),0.81,-2.1
CCCCN(C)CCNC(=O)c1c[nH]n2c(=O)c(Cc3ccccc3F)c(C)nc12,1.1,1.9
CCOc1cccc(C(=O)Nc2cccc(-c3nc4cc(C)c(C)cc4o3)c2)c1,1,0.73

# Complete entries, quoted from the list. Screens in order: CBX7 AlphaScr	CBX7 AlphaScr z-score
# Cc1noc(C)c1S(=O)(=O)N1CCC(C(=O)N2CCCCC2)CC1 reads 1	1.5
# COc1ccc(C)cc1NC(=O)C(CC(C)C)NS(=O)(=O)c1ccc2nc(C)sc2c1 (stereo not given) reads 0.93	-1.4

# Further entries:
SMILES,CBX7 AlphaScr,CBX7 AlphaScr z-score
Clc1ccc2nc(-c3ccc(N4CCOCC4)cc3)c(Nc3ccccc3)n2c1,1,0.05
CC(=O)Nc1ccc2nc(-c3ccccn3)[nH]c2c1,0.57,-5.4
COc1cccc(NC(=O)CCNC(=O)Cn2ccc3ccccc3c2=O)c1,1.1,1.4
O=C(COc1ccc(Cl)cc1)NCc1nnc(SCC(=O)NCC2CCCO2)o1 (stereo not given),1,1.8
COc1ccc(N2C(=O)CC(N3CCN(C(c4ccccc4)c4ccccc4)CC3)C2=O)cc1 (stereo not given),0.92,-1.3
CCOc1ccccc1C(=O)Nc1nnc(COC)s1,1.1,0.72
CC(C)CSc1oc(-c2ccc(F)cc2)nc1S(=O)(=O)c1ccccc1,0.99,-0.07

# High-throughput results from PubChem.
